Assay outcomes deposited in PubChem by ICCB-Longwood Screening Facility, Harvard Medical School.
AID504770 = growth inhibitors of E. coli YBA685 in a screen for V. cholerae RctB (chromosome II replication) inhibitors. E. coli YBA685 rctB-dependent plasmid, OD600 growth, 3 h; active compounds read low. z-score (test concentration not listed). 0.27% of 130,000 active. AID 504770;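 active means z-score under -2 on both plates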;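 further: wells of about 30 µL received 100 nL stock; score is relative to mean and SD of the test wells; the first replicate is given; strong numbers were not always called active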
CapD inh = inhibitors of Bacillus anthracis CapD enzyme; 0.23% of 140,000 active; purified CapD enzyme, fluorescence intensity read-out; active compounds read low; some hits fall short of the stated cut; AID 492967; z-score (concentration not given with the values);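 active means z-score under -4 in either of two replicates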;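 further: stock transfer was 100 nL into about 40 µL; score is relative to mean and spread of the plate; one replicate is shown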
* = called active by the depositor; x = not tested or not shown. Compounds as they come (roughly 0.37% active in at least one column).

item	SMILES	AID504770	CapD inh
1	CN(C)C(=O)n1nnc2ccccc21	-0.5	x
2	COc1cccc(N2C(=O)C(N3C(=O)c4ccccc4C3=O)C2c2cc(OC)c(OC)c(OC)c2)c1 (stereo not drawn)	x	-0.15
3	O=C(Cn1nnc(-c2cccc(Cl)c2)n1)NCC(=O)Nc1ccc(F)cc1	-0.7	x
4	O=C(N/N=C/c1c(F)cccc1Cl)c1ccc2nonc2c1	x	-0.7
5	CC1=C(C(=O)OCC2CCCO2)C(c2ccc(OCc3ccccc3)cc2)NC(=O)N1 (stereo not drawn)	x	-0.34
6	N#Cc1c(Sc2ccc(Cl)cc2)nc(-c2ccccc2)nc1-c1ccccc1	x	-0.54
7	C=CC(=O)N1c2ccccc2-c2c(ssc2=S)C1(C)C	x	0.055
8	CCc1cc2c(=O)n(CC)c(SCC3CCCCO3)nc2s1 (stereo not drawn)	-1.1	x
9	CC(=O)N1N=C(c2ccc(C(C)(C)C)cc2)OC1(C)C	0.05	0.45
10	CN(C)c1nc(NCCNS(=O)(=O)c2ccc(Cl)cc2)nc(N(C)C)n1	-1.1	x
11	Fc1ccc(C(c2nnnn2Cc2ccccc2)N2CCSCC2)cc1 (stereo not drawn)	-0.1	x
12	Cn1c(CNc2ccc(C(=O)O)cc2)nc2ccccc21	1.4	0.42
13	N#Cc1ccc(COc2ncnc3ccccc23)cc1	-0.3	x
14	O=C(CSc1ncnc2c1nnn2Cc1ccc(F)cc1)c1ccccc1	-0.05	0.14
15	Cc1ccc(CNC(=O)c2cccnc2Sc2cccc(C(F)(F)F)c2)cc1	2.7	0.32
16	COc1ccc(C=NCCc2cccs2)c(O)c1	0.7	-0.68
17	CC(=N\N1CCOCC1)/C(C)=N/N1CCOCC1	0.5	x
18	CC(=O)Nc1cc2c(cc1C(=O)C(C)C)OCCO2	-0.5	6.4
19	O=C(Nc1ccccc1O)c1csc2c1CCCC2	0.9	x
20	O=C(O)C(O)c1cccc(Cl)c1 (stereo not drawn)	1.2	-0.005
21	CN(C)c1oc(-c2ccc(Cl)cc2)nc1C#N	-2.4	0.055
22	CC1=NN(C)C(=O)/C1=C/N(C)C	x	-0.085
23	O=[N+]([O-])c1ccc(SC2=NCCN2)c(Cl)c1	x	-0.71
24	CCSc1nnc2c(n1)OC(c1cccc(OC)c1)Nc1ccccc1-2 (stereo not drawn)	x	0.02
25	CN(C)C=Nc1nc(N2CCN(c3ccccn3)CC2)c(C#N)cc1C#N	x	1.3
26	Nc1ccc2nc(-c3ccccc3)oc2c1	-0.55	63
27	O=C(Nc1nc(-c2cccs2)cs1)c1ccc(Cl)cc1	1	-0.19
28	Cc1ccc(S(=O)(=O)NCCCn2ccnc2)cc1	-0.65	0.39
29	CCOC(=O)Cn1c(=O)n(CCc2ccc(OC)c(OC)c2)c(=O)c2cccnc21	0.6	4
30	O=C(Nc1cccnc1)c1cc2c(s1)-c1ccccc1CC2	-0.15	59
31	Cc1cc(C(=O)O)c(C)n1-c1ccc(Cl)cc1	x	-0.14
32	Cc1cc(C)n2nc(SCCC(=O)NCc3ccccc3)nc2n1	0.05	-0.26
33	CS(=O)(=O)c1ccc(CC(=O)O)cc1	-0.45	-0.27
34	CC(C)(C)c1cc(N)c(C(N)=O)s1	x	0.15
35	Cc1cc2c(cc(C(=O)NCc3ccc(Cl)cc3)n2Cc2ccc(Cl)cc2)o1	1.1	0.43
36	Cc1cc(NC(=O)C2CC2)nc2c1c(=O)oc1ccccc12	0.15	1.9

2 compounds picked at random from the list so far:
item	SMILES	AID504770	CapD inh
27	O=C(Nc1nc(-c2cccs2)cs1)c1ccc(Cl)cc1	1	-0.19
28	Cc1ccc(S(=O)(=O)NCCCn2ccnc2)cc1	-0.65	0.39

(list continues)
item	SMILES	AID504770	CapD inh
37	OCCN1CCN(C(c2ccccc2)c2ccc3cccnc3c2O)CC1 (stereo not drawn)	2.9	-5.2*
38	O=C1Nc2ccccc2C12OCC1(CO2)CC2C=CC1C2 (stereo not drawn)	x	0.85
39	CN(Cc1ccccc1)c1nc2c(c(=O)[nH]c(=O)n2C)n1CCCOc1ccccc1	0.55	x
40	Cc1cc(C)c(S(=O)(=O)N2CCc3ccccc32)c(C)c1	-0.5	-0.4
41	O=C(Nc1cc(Cl)ccc1Oc1ccc(Br)c2ccccc12)c1cc(I)cc(I)c1O	x	-1.1
42	Cc1nc2cc(C(=O)O)ccc2n1-c1ccc(Br)cc1	1.1	1.5
43	O=C(NCC1COc2ccccc2O1)c1cc(-c2ccco2)nc2ccccc12 (stereo not drawn)	-1.4	x
44	CCc1ccc(N2C(=O)c3ccccc3NC2(C)C)cc1	-0.45	42
45	COc1cccc(NC(=O)CSc2ccccc2)c1	-1.5	-0.28
46	Cc1ccc2c(c1)CCCN2C(=O)CC(=O)N1CCCc2cc(C)ccc21	0.3	8
47	O=C(Nc1cccnc1Cl)c1nn2c(C(F)(F)F)cc(-c3ccco3)nc2c1Cl	x	0.23
48	NC(=O)C1CCN(c2nc(Nc3ccccc3)nc(Nc3ccccc3)n2)CC1	x	0.065
49	Cc1ccc(Br)cc1S(N)(=O)=O	-1	x
50	CCOC(=O)c1ccc2nc(NC(=O)COC(=O)c3ccc(N4C(=O)CCC4=O)cc3)sc2c1	x	2.2
51	CCOC(=O)C1CCN(c2ccc(C(C)=O)cc2[N+](=O)[O-])CC1	x	-2.5
52	C/C=C/C1(/[N+]([O-])=C/c2ccccc2)CCCCC1	-0.85	0.2
53	CCOc1ccccc1NC(=O)c1ccccc1O	-1.1	2.4
54	COc1ccc(/C(O)=C2\C(=O)C(=O)OC23C(=O)c2ccccc2C3=O)cc1	1.6	-1.5
55	COc1cccc(C(=O)NC(c2ccc(OC)c(OC)c2)c2cc(Cl)c3cccnc3c2O)c1 (stereo not drawn)	x	-0.19
56	O=C(Cn1nnc(-c2cc(Cl)cc(Cl)c2)n1)c1ccc2ccccc2c1	0.4	-0.3
57	Cc1ccc(CNC(=O)NCCN2CCN(c3ccccc3)CC2)cc1	0	-0.85
58	C1=CC2C=CC1c1ccccc12	1.1	-0.07
59	Cc1nc2ccc(NS(=O)(=O)c3ccccc3C(F)(F)F)cc2s1	1.6	x
60	CC(C)Cc1ccc(C(C)C(=O)NC(C)C)cc1 (stereo not drawn)	-0.5	0.65

Brought forward from above: two entries, followed by the next part.
item	SMILES	AID504770	CapD inh
59	Cc1nc2ccc(NS(=O)(=O)c3ccccc3C(F)(F)F)cc2s1	1.6	x
60	CC(C)Cc1ccc(C(C)C(=O)NC(C)C)cc1 (stereo not drawn)	-0.5	0.65
61	CCC(C)NC(=O)CSc1nc(NCCc2ccccc2)c2ccccc2n1 (stereo not drawn)	x	0.81
62	CC(C(=O)c1ccccc1)[n+]1ccc2ccccc2c1 (stereo not drawn)	0.9	-0.26
63	Oc1ccc(Cl)cc1-c1cc(-c2ccco2)[nH]n1	1.5	1.4
64	Cc1ccc(-n2c(N)c(C(=O)Nc3ccccc3F)sc2=S)cc1C	x	-0.49
65	O=C(CSc1nc2ccccc2nc1N1CCCC1)Nc1ccccc1	-2	-1.5
66	COc1ccc(-c2nc(-c3cccc(OC)c3)c(-c3cccc(OC)c3)[nH]2)cc1	x	41
67	Cc1cc(=O)[nH]c2n[nH]c(-c3ccccc3)c12	-0.6	9.5
68	Cc1cc(OCC(=O)O)c2ccccc2n1	0.5	x
69	COc1cccc(C(=O)NN)c1	x	0.76
70	Cc1cc(-n2c(C)cc(CNC3CCN(Cc4ccccc4)C3)c2C)no1 (stereo not drawn)	-1.1	x
71	O=C(NCc1cccs1)c1cc(=O)[nH]c2ccc(S(=O)(=O)N3CCCC3)cc12	4.3	-1.3
72	CC1=C(C(=O)Nc2ccccc2)C(c2ccc(Cl)cc2)N2C(=O)CSC2=N1 (stereo not drawn)	x	-0.43
73	C=CCc1ccccc1OCC(O)CN1CCN(C(=O)OCC)CC1 (stereo not drawn)	1.1	-0.27
74	O=C(NCCC(=O)N1CCN(C/C=C/c2ccccc2)CC1)c1ccc(Cl)cc1	-0.25	x
75	CC1(C)C2CC=C(COC(=O)N3CCC(O)(c4ccc(Cl)cc4)CC3)C1C2 (stereo not drawn)	x	-0.21
76	Cc1ccc(NC(=O)c2sc3ncnc(N4CCOCC4)c3c2C)cc1	x	-0.055
77	CN(C)C(=O)N1CCC(Cc2ccccc2)CC1	1.4	-0.025
78	Fc1cccc(Cl)c1CSc1ccccc1Br	x	-0.12
79	CC(C)(C)C(=O)Cn1ncc(Br)c(Br)c1=O	x	-0.29
80	O=C(CCCC(=O)c1ccccc1)Nc1ccc2c(c1)CCC2	-0.8	-0.54
81	O=C(Nc1ccc(S(=O)(=O)N2CCCCC2)cc1)c1cc(-c2cccs2)nc2ccccc12	0	-0.42
82	CC(=O)n1c2ccccc2c2cc(Cl)ccc21	0.55	x
83	Cc1cc(NC(=O)c2ccc(NS(=O)(=O)c3ccc(F)cc3)cc2)no1	-0.2	x
84	COc1ccc(/C=C2\N=C(c3cc(Br)ccc3OC)OC2=O)c(OC)c1	x	-0.65

Compounds listed so far that have a nitro group on carbon, in the order listed:
item	SMILES	AID504770	CapD inh
23	O=[N+]([O-])c1ccc(SC2=NCCN2)c(Cl)c1	x	-0.71
51	CCOC(=O)C1CCN(c2ccc(C(C)=O)cc2[N+](=O)[O-])CC1	x	-2.5

Next compounds
item	SMILES	AID504770	CapD inh
85	Cc1ccc(Nc2nnc(-c3ccc(C)c(S(=O)(=O)NCC4CCCO4)c3)c3ccccc23)cc1 (stereo not drawn)	1.8	-0.1
86	c1ccc2nc3c(nc2c1)CCCC3	-0.5	-1.2
87	Cc1ccc2nc(=S)nc(-c3ccccc3)n2c1	0.55	1.6
88	CC1=NN(c2ccccc2)C(=O)C1C=NC1CCS(=O)(=O)C1 (stereo not drawn)	0	0.18
89	O=C1c2ccccc2C(=O)N1CC(=O)N1c2ccccc2CCc2ccccc21	0.15	-0.21
90	O=C(c1cnn2c(C(F)(F)F)cc(-c3ccc4c(c3)OCO4)nc12)N1CCN(Cc2ccccc2)CC1	x	0.24
91	O=c1c(-c2ccccc2)nnc2c3ccccc3ncn12	0.55	x
92	CCCc1cc(=O)[nH]c(SCC(=O)c2ccc3c(c2)CCN3S(=O)(=O)CC)n1	-0.75	x
93	O=C(CCc1c[nH]c2ccccc12)OCC(=O)N1CCc2ccccc21	0.2	x
94	N#CC(C#N)=C1c2cc(S(=O)(=O)NCc3ccccc3)cc([N+](=O)[O-])c2-c2c1cc(S(=O)(=O)NCc1ccccc1)cc2[N+](=O)[O-]	x	-0.34
95	CCOc1ccc(C2C(C(=O)Nc3ccc(F)cc3)c3ccccc3C(=O)N2CCN2CCOCC2)cc1 (stereo not drawn)	-0.6	-0.42
96	CC1CC(CC(C)C(=O)Nc2nncs2)C(=O)O1 (stereo not drawn)	-0.65	-0.85
97	COc1cccc(NC(=O)C(C)(C)C)c1	-0.65	0.52
98	N#CCOC(=O)c1ccc2c(c1)S(=O)(=O)N=C1CCCCCN12	-0.1	x
99	FC(F)(F)c1cc(Cl)c2ncc(-c3ccc(Br)s3)nc2c1	-0.4	3.3
100	C/C(=N\NC(=S)NC(C)(C)C)c1cc(F)ccc1O	x	0.22
101	CSc1ncc(C(=O)NC2CCN(Cc3ccccc3)CC2)c(C)n1	1.1	-0.29
102	O=C(O)CCCOc1ccc(Br)cc1	1.2	0.11
103	Cc1ccccc1N1C(=O)NC(=O)/C(=C\c2cc(Br)c(N3CCOCC3)o2)C1=O	x	-0.28
104	COC(=O)c1cccc(-c2ccc(/C=C3\C(=O)N(c4ccc(S(N)(=O)=O)cc4)N=C3C(F)(F)F)o2)c1	x	0.63
105	CCOc1ccc(C(=O)NNC(=O)OC/C=C/COCc2ccccc2)cc1	x	0.09
106	CN(C)CCCNc1nc(-c2ccc(Cl)cc2)cs1	3	x
107	Cc1cc(C2=NNC(=NCC3CCCO3)SC2)c(C)n1-c1ccc(F)cc1 (stereo not drawn)	0.35	x
108	O=C(c1cc2ccc3cccnc3c2[nH]1)N1CCCC1	0.25	1.3
109	CCCS(=O)(=O)N1CCN(c2ccccc2F)CC1	0.15	-0.33
110	O=C(CN1C(=O)c2ccccc2C1=O)Nc1ncn[nH]1	-0.4	0.005
111	CCn1c(-c2ccccc2Cl)nc2ccccc21	0.65	0.17
112	COC(=O)C1=C(C)N(C)C(=S)NC1c1ccccc1 (stereo not drawn)	0.05	-0.22
113	c1ccc(C(c2ccccc2)N2CCN(c3ncnc4nc[nH]c34)CC2)cc1	0.3	0.07
114	CN1CCN(CC(=O)N2c3ccccc3CCc3ccccc32)CC1	x	0.19
115	Brc1cccc(COc2ccc(-c3nnco3)cc2)c1	-0.65	x
116	CN(C)C=Nc1cc(C(C)(C)C)on1	x	0.035
117	CC1(C)CC(=O)C2=C(C1)c1c(ccc3ccccc13)NC2c1ccc(N2CCC(Cc3ccccc3)CC2)c([N+](=O)[O-])c1 (stereo not drawn)	x	-0.27
118	C=CCN(CC(=O)Nc1cccnc1)S(=O)(=O)c1ccc(Cl)cc1	0.2	x
119	Cc1ccc(-c2nn(-c3ccccc3)cc2/C=N/O)cc1	-0.7	2.8
120	S=c1[nH]cc(-c2ccc(Br)cc2)[nH]1	-0.2	x
121	c1ccc(-c2nnc(Sc3ncnc4c3oc3ccccc34)o2)cc1	-0.45	x
122	Cc1ccccc1OCC(=O)NN1C(=O)C2C3C=CC(O3)C2C1=O (stereo not drawn)	0.35	-0.14
